# Rango dissoc inh – prevents RanGTP from dissociating the Rango-importin beta complex; Biochemical FRET Rango-importin beta, RanGTP-induced dissociation; Potency, µM (series often up to 46.1 µM), without a hit: top-dose activity change, negative = inhibition; actives 0.071% (n = 340,000); active means falling FRET ratio curve, often poorly fitted, with flat reads before Ran was added; inconclusive means other falling curves, or compound fluorescence or quenching; inactive means flat or rising ratio curve;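 also: potency is read from the fitted curve at half-maximal effect; % of control where 0% means no effect; nearly all actives have a fitted effect of over 45% in size; -100% = wells without RanGTP and RCC1; the record marks most hits as doubtful in a second field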
#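 FRET read at 45 min, room temperature: inhibitors block the CFP/YFP signal rise when RanGTP (0.6 uM Ran, 2 mM GTP, 0.2 uM RCC1) frees Rango (0.1 uM) from importin beta (0.25 uM). Pre-read after 5 min compound exposure flags interference.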
# GLA inh pH 4.5 – alpha-galactosidase A (human) inhibition, pH 4.5; 230,000 tested, under 10 active; purified enzyme, 4-MU-alpha-Gal fluorescence, pH 4.5; P06280; activity change, negative = inhibition, % at 105 µM; inconclusive = small, poorly fitted or top-dose-only inhibition, or a rising curve; inactive = flat fitted curve, though single readings scatter; no compound was filed as active;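 also: 0% = full activity with enzyme and -100% = basal without enzyme; dose as in the result columns while the protocol names 77 µM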
# Rango-impB inh – Rango-importin beta binding inhibition; AID 540263; Potency, µM (titrated, usually from 92.2 µM), for the others: at the highest dose inhibition of complex formation; Rango CFP/YFP FRET sensor + importin beta, 45 min; actives 0.031% (n = 340,000); active = rising FRET ratio curve, often small or poorly fitted; inconclusive = mostly compound fluorescence or quenching in the first reads; inactive = flat curves in all reads;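 also: potency is read from the fitted curve at half-maximal effect; 0% = DMSO wells and 100% = buffer wells lacking importin beta; nearly all actives have a fitted effect of over 15% in size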
# Target sequence (Q14974 whole entry, looked up): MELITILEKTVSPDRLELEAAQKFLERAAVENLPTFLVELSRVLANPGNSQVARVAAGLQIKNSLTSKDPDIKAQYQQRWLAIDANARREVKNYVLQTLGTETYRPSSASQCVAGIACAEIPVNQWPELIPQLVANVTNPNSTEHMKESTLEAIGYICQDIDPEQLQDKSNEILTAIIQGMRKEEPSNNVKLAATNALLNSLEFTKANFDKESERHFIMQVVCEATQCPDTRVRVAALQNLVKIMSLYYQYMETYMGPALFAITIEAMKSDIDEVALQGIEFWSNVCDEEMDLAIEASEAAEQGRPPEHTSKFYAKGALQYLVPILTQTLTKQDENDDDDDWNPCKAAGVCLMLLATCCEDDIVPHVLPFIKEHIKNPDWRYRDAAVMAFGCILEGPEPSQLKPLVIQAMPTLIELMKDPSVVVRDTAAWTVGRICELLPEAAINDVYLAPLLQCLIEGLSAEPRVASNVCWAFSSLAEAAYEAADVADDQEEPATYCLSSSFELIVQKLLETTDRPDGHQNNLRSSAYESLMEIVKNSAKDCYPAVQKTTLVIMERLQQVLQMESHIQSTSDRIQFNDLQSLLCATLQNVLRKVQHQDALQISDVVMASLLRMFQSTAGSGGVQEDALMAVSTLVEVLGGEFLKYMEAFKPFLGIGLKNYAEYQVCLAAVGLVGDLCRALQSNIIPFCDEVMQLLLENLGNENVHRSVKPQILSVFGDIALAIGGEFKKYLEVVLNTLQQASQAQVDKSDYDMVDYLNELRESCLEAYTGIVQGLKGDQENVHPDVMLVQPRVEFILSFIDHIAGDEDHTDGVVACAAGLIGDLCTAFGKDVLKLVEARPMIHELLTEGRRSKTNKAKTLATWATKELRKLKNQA
#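 FRET biosensor Rango (snurportin 1 IBB between N-terminal EYFP and C-terminal Cerulean), 50 nM in PBS/1 mM DTT/0.02% Tween-20/0.1% BSA, preincubated 5 min RT with compound; 0.125 microM importin beta added, 45 min RT, CFP/YFP FRET ratio read.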
# miR-21 reporter – raises the signal of a miR-21 reporter. HeLa miR-21 FLuc reporter, luciferase, 48 h. Potency, µM (titrated, usually from 38.3 µM), for inactives: at the top dose reporter change, positive = more light. 340,000 tested, under 10 active. AID 2288; active = well fitted rising curve with a large enough effect; inconclusive = small, poorly fitted or top-dose-only effect; inactive = no such curve, though single readings can be large or run the other way;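 also: % of control where 0% means no effect; miR-21 action dims this reporter so a rising signal means less miR-21 action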
#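 HeLa miR-21-FLuc reporter line, endogenous miR-21; 2000 cells/well in DMEM/10% FBS; compound titration up to ~40uM final, 48 h, 37 degree Celsius; luciferase detection reagent, 15 min lysis, CCD luminescence.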
# The depositor's hits bear a star; u = inconclusive; x = no result given; & = joins results of further samples. A portion of the library, so the mix of outcomes need not match the whole.
molecule	Rango-impB inh	GLA inh pH 4.5	miR-21 reporter	Rango dissoc inh
Cc1cc(Br)ccc1NC(=O)c1cnc(N2CCN(c3ccccn3)CC2)c2ccccc12	-0.2%	4	u	7%
Cc1ccc(C)c(C(C)NC(=O)c2ccc(Br)o2)c1 (centres undefined)	3.3%	4	-5%	-3%
COc1ccccc1/C=C/C=C1N=C(/C=C/c2ccc(Cl)cc2)OC/1=O	-2.3%	-7	-14%	8%
CCOC1(OCC)N=C(N)C2(C#N)C(c3ccc(NC(C)=O)cc3)C12C#N (centres undefined)	u	-8	-6%	u
COc1ccc(C2=NS(=O)(=O)N(C)C(C(=O)Nc3cc(C)ccc3O)=C2)cc1OC	-0.4%	x	12%&-46%	1%
CCN1C(=O)[C@H]2[C@@H](c3ccc(OC)cc3)N3C(=O)CN(CC4CC4)C(=O)[C@@]3(C)[C@H]2C1=O	0.8%	x	2%	5%
C/C(CCc1ccccc1)=N/NC(=O)C(=O)NC(C)c1ccccc1 (centres undefined)	0.7%	2	-3%	-5%
Cc1ccc2c(c1)c(C1=c3ccccc3=NC1=O)c(O)n2C	-1.3%	x	-2%	5%
O=C(Nc1ccc2nsnc2c1)C1CC1	u	3	-9%	-1%
CCOC(=O)C1(CCOc2ccccc2)CCN(Cc2cc(OC)c(O)c(OC)c2)CC1	-0.5%	x	6%	-12%
CCc1c(C)nc2c(OC)cccc2c1SCCC(=O)O	1.4%	18	-5%	3%
CCCCCCC1CC(C)(C(=O)CNc2nncs2)OC1=O (centres undefined)	1.9%	-3	-10%	5%
COc1cccc(NC(=O)Cn2nnc(C(=O)Nc3ccccc3)c2N)c1	0.1%	0	1%	4%
CCN1C(=O)C2C(c3ccccc3F)NC(Cc3ccc(O)cc3)(C(=O)OC)C2C1=O (centres undefined)	6.4%	6	15%	20%
Cn1ncc(Br)c1NC(=O)Nc1ccc(Cl)cc1	-2.9%	x	0%	1%
OC(COc1ccccc1)Cn1c2ccccc2c2ccccc21 (centres undefined)	7.3%	3	-9%	4%
CCOc1ccc(C2=Cc3cc(OC)c(OC)cc3C(=C(Cl)Cl)O2)cc1	x	-5	-1%	x
CCCCOC(=O)C1Cc2ccccc2C(=O)O1 (centres undefined)	-0.4%	-2	-1%	-21%
O=C(CN1C2=NCCCN2c2ccccc21)c1ccc([N+](=O)[O-])cc1	-3.6%	0	20%	14%
COc1ccccc1NC(=O)CC(NC1CCCCC1)C(=O)O (centres undefined)	-1.9%	-1	-4%	-2%
Cc1sc(NC(=O)c2ccco2)c(C(c2cccnc2)N2CCN(C)CC2)c1C (centres undefined)	1.8%	-6	0%	1%
O=C(Nc1cccc(Cl)c1)N(CCN1CCOCC1)Cc1ccccc1F	u	6	-9%	2%
CC(=C/C(=O)O)/C=C/c1ccc([N+](=O)[O-])cc1	-4.3%	4	-9%	1%
O=C(COC(=O)COc1cccc(Br)c1)Nc1ccc(F)cc1F	0.2%	x	x	12%
CCSc1nnc(NC(NC(C)=O)(C(F)(F)F)C(F)(F)F)s1	-4.8%	-7	-3%	8%
CCOC(=O)c1csc(-c2ccc(OC)c(OC)c2)n1	0.0%	7	-42%	14%
COc1ccccc1OC(C)C(=O)N1CCc2ccccc21 (centres undefined)	4.0%	x	x	-12%
COc1ccc(NC(=O)CSc2nnc(-c3ccccc3C)n2N)cc1OC	-1.0%	0	4%	1%
COc1ccc(NS(=O)(=O)c2ccc(N3CCCCC3)c(NC(=O)C(C)NC(N)=O)c2)cc1 (centres undefined)	-1.3%	x	x	-10%
CCC(=O)Nc1ccc(NC(=O)/C=C/c2ccc(Cl)cc2)cc1	-0.7%	4	-9%	4%
CN(CC(=O)Nc1ccccc1Sc1ccccc1)C1CCCCC1	4.2%	1	-6%	-8%
CC(C)(C)c1ccc(-n2nc(C#N)c(Cl)cc2=O)cc1	4.5%	-15	u	u
CCOc1ccccc1NC(=O)CSc1nnc(-c2ccncc2)o1	0.3%	x	x	-5%
O=C(NCc1cccs1)C1CCC(CNS(=O)(=O)c2cccs2)CC1 (centres undefined)	2.9%	-11	7%	7%
COc1ccc(/C=C2\SC(=N)N(c3ccc(F)cc3)C2=O)cc1	3.3%	-2	-5%	-8%
CS(=O)(=O)N1CCN(c2ccc(NC(=O)c3ccc(-c4ccc(Cl)cc4)o3)cc2)CC1	-0.2%	2	-1%	-1%
CCS(=O)(=O)C(C)(CCl)C(=O)Nc1ccc(C(=O)OC)cc1 (centres undefined)	-0.6%	0	-4%	9%
CN(Cc1nccs1)C(=O)c1cc(COc2cccc3cnccc23)on1	-0.3%	x	22%	-9%
COc1ccc(-c2ccc(C3C(C#N)=C(N)Oc4n[nH]c(C)c43)o2)cc1 (centres undefined)	u	-17	-13%	u
O=C(Nc1nnc(C23CC4CC(CC(C4)C2)C3)s1)c1ccco1	-1.2%	-3	-51%	5%
O=C(CCCn1c(=O)[nH]c2ccccc2c1=O)NC1CCCCCC1	4.2%	3	-12%	-19%
Cc1nnc(SCC(=O)OC2CC(C)CCC2C(C)C)[nH]c1=O (centres undefined)	2.9%	0	-3%	9%
CCOC(=O)c1sc(NC(=O)CSc2nc(O)c(Cc3ccccc3)c(=O)[nH]2)nc1C	u	-12	-4%	14%
Nc1cc(C(F)(F)F)ccc1-n1cccc1	-1.3%	0	-2%	-16%
Cc1ccc(C(=O)NCc2cccs2)cc1S(=O)(=O)N1CCCCC1	-4.4%	11	3%	0%
O=C(NCc1cc(C(F)(F)F)cc(C(F)(F)F)c1)C1CC(c2ccc(C(F)(F)F)cc2)=NO1 (centres undefined)	2.6%	x	x	-20%
CN(C)C(C(=O)Nc1cc(Cl)cc(Cl)c1)c1ccccc1 (centres undefined)	2.5%	4	5%	18%
Cc1ccc2c(c1)C(=O)C(=O)N2CCCOc1ccccc1C	7.0%	-3	-3%	-14%
O=S(=O)(NCc1cccnc1)c1ccc2ccccc2c1	1.1%	x	-1%	u
Cc1cccc(N(CC(=O)NC2CCCCC2)C(=O)CCCC(=O)Nc2ccccn2)c1C	3.7%	x	-2%	3%
CCc1cccc(CC)c1NC(=O)COn1nnc2ccc(C(F)(F)F)cc21	-0.2%	3	-10%	-11%
COc1ccc(OC)c(C(=O)NC(CC(N)=O)c2ccc(NCCN3CCCCC3)c([N+](=O)[O-])c2)c1 (centres undefined)	-2.8%	x	0%	26%
CCS(=O)(=O)N1Cc2ccccc2CC1C(=O)OCC(=O)N(C(C)C)C(C)C (centres undefined)	-1.2%	9	-1%	-3%
Cc1nc(N2CCCCC2)c2c(-c3cccs3)csc2n1	0.1%	7	-5%	1%
O=C(NCCO)c1ccccc1O	-3.4%	-1	-1%	22%
Cc1ccc(-c2csc3nnc(SCC(=O)Nc4cccc(C)n4)n23)cc1	4.5%	0	-7%	4%
CCn1c(=O)c([N+](=O)[O-])c(N2CCSCC2)c2ccccc21	-1.3%	-4	14%	9%
CCN1CCN(C(=O)C(N)Cc2ccccc2)CC1 (centres undefined)	2.2%	-4	0%	4%
COc1ccc(-c2nn3c(-c4cccc(C)c4)nnc3s2)cc1OC	-2.9%	x	x	11%
CCOC(=O)N1CCN(C(=O)NC2CCCCC2)CC1	2.4%	8	-4%	-3%

# Shown with values under each structure: 4 of the compounds above.
# Values in the order – Rango-impB inh	GLA inh pH 4.5	miR-21 reporter	Rango dissoc inh
- Cc1cccc(N(CC(=O)NC2CCCCC2)C(=O)CCCC(=O)Nc2ccccn2)c1C
 : 3.7%	x	-2%	3%
- CCc1cccc(CC)c1NC(=O)COn1nnc2ccc(C(F)(F)F)cc21
 : -0.2%	3	-10%	-11%
- Cc1nnc(SCC(=O)OC2CC(C)CCC2C(C)C)[nH]c1=O (centres undefined)
 : 2.9%	0	-3%	9%
- CN(CC(=O)Nc1ccccc1Sc1ccccc1)C1CCCCC1
 : 4.2%	1	-6%	-8%

# Next section.
molecule	Rango-impB inh	GLA inh pH 4.5	miR-21 reporter	Rango dissoc inh
COc1ccc(CN(CC(=O)NC2CCCC2)C(=O)c2ccc(-c3ccccc3)[nH]2)cc1	2.3%	-3	5%	-4%
O=C(Cn1cnc2c(cnn2-c2ccc(F)cc2)c1=O)N1CCCc2ccccc21	4.1%	-6	-9%	-1%
CN(C)C(=O)c1c([N+](=O)[O-])ncn1C	0.9%	-6	0%	-9%
CCOc1c(N2CCOCC2)c(=O)c1=O	4.1%	-7	2%	2%
CCCCC(=O)Nc1ccc2c(c1)nc1n2CCSC1	-0.4%	-4	-32%	0%
Cc1ccc(CNc2nc(Cl)c(C#N)s2)cc1	0.3%	11	-44%	-2%
Cc1cccc(-n2nc3c([n+]2[O-])CCc2nonc2-3)c1C	-3.0%	1	1%	2%
O=C(COC(=O)c1ccc([N+](=O)[O-])o1)NC1CCCc2ccccc21 (centres undefined)	-1.2%	x	x	-14%
CCOC(=O)N1CCN(C(=O)CCn2c(=S)[nH]c3ccccc3c2=O)CC1	1.4%	x	1%	1%
CC(/C=N\N1CCN(c2ccc(Cl)cc2)CC1)=C\c1ccccc1	-0.1%	7	-1%	2%
COc1ccc(NC(=O)c2c(N)cnn2C)cc1	-0.5%	x	-14%	1%
CCn1c(O)c(/C=N/n2cnnc2)sc1=S	u	-1	-10%	u
Cc1ccc(C(=O)CSc2nc3c([nH]2)c(=O)n(C)c(=O)n3C)cc1	0.3%	-2	2%	-6%
CCOC(=O)CSc1n[nH]c(NC(=O)c2cccc(C(F)(F)F)c2)n1	2.7%	5	-3%	-12%
Cc1cc(Cc2ccc(N)c(C)c2)ccc1N	1.7%	-8	-2%	-8%
CC(=O)c1cccc(NC(=O)COC(=O)[C@@H](NC(=O)OCc2ccccc2)C(C)C)c1	-2.9%	4	-1%	2%
COc1ccccc1C(=O)Nc1ccc2c(c1)nc(CCNC(=O)c1ccccc1)n2C	-0.5%	-3	1%	-5%
CC[C@]12c3[nH]c4cc(CCC(=O)N(C)C)ccc4c3CCN1C(=O)[C@@H](CC(=O)NC/C=C(\C)CCC=C(C)C)C[C@@H]2C(=O)N1CCN(C(=O)C2CC2)CC1	-3.0%	x	x	-9%
CN(C)c1ccc2c(c1)Sc1cc(N(C)C)ccc1N2C(=O)c1ccccc1	-4.6%	-10	1%	-5%
CC(NC(=O)c1ccc(S(=O)(=O)N(C)C)cc1)c1ccccc1 (centres undefined)	2.4%	-12	-5%	-6%
CC(C)(C)c1nn(-c2ccccc2)c2[nH]c(=O)c(C=O)cc12	u	x	-1%	u
O=C(CN1CCN(c2ccccn2)CC1)Nc1cccc(F)c1	0.1%	x	-2%	10%
O=C(c1cc(=O)c2ccccc2o1)N1CCN(c2ccccc2)CC1	-2.0%	4	-11%	18%
COc1cccc2cc(C(=O)Nc3cc(C)cc(C)c3)/c(=N/NS(=O)(=O)c3ccccc3)oc12	-1.2%	x	-2%	26%
CC(Sc1nccn1C)C(=O)NC1(C#N)CCCCC1 (centres undefined)	1.4%	x	x	-13%
Cc1cc(NC(=O)COC(=O)C2=NN(c3ccccc3)C(=O)CC2)c([N+](=O)[O-])cc1C	8.1%	x	x	-2%
Cc1cc(Oc2ccc(C(C)(C)C)cc2)nc(N2CCOCC2)n1	-2.0%	-9	-2%	32%
Cc1ccc(NC(=O)COC(=O)c2ccccc2F)cc1S(=O)(=O)N1CCCCC1	-0.8%	x	x	-5%
O=C(CN1CCc2ccccc2C1)Nc1ccccc1F	-3.9%	x	-15%	1%
CCOC(=O)Cc1csc(NC(=O)CCN2C(=O)c3ccccc3C2=O)n1	-0.6%	2	5%	-4%
Oc1ccc(Br)cc1/C=N/N1CCN(Cc2ccccc2)CC1	-2.8%	6	-2%	-6%
O=C1c2cccnc2C(O)N1Cc1cccs1 (centres undefined)	-1.7%	-6	-9%	-6%
Cc1cccc2sc(NC(=O)[C@H](C)N3C(=O)C4CC=CCC4C3=O)nc12 (some centres undefined)	0.3%	0	6%	5%
